Polio RdRp inh = poliovirus RNA polymerase inhibition; poliovirus polymerase elongation, fluorescence polarization; stronger effect = lower value; AID 588519; 150,000 tested, 0.66% active; P03300; % elongation, % (compound at 16.7 µg/mL); in the data active = % elongation below about 90%; note: some results filed as inactive read as strong as hits
Mtb MenB inh = Mtb MenB enzyme inhibition. MenB enzyme assay, absorbance read-out; some hits fall short of the stated cut. inhibition, %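 (about 12 µg/mL by stock and volumes)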. 100,000 tested, 0.43% active;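 active = mean of two replicates above 30%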;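 note: 0% = no compound and 100% = wells with inactive enzyme; the first replicate is given; strong numbers were not always called active; inactives centre near -10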
Target sequence (P9WNP5 whole entry, looked up): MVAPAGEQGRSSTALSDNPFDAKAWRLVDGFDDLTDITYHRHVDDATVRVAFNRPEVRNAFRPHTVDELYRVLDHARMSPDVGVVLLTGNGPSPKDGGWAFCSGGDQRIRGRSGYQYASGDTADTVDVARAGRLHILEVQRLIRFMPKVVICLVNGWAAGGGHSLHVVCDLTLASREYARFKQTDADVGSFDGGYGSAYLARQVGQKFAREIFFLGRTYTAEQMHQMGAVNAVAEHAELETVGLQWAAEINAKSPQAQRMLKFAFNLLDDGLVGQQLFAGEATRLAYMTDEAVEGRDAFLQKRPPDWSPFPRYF
Mtb MbtI inh = blocks the Mycobacterium tuberculosis siderophore enzyme MbtI; P9WFX0; purified MbtI enzyme, fluorescence intensity read-out; inhibition, %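 (about 17 µg/mL by stock and volumes)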; 100,000 tested, 0.89% active;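 active = above 50% in both replicates, above 80% if mildly self-fluorescent; inactive = the rest, strongly fluorescent compounds included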;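 note: 0% = mean of negative and 100% = mean of positive controls; one replicate is shown; some compounds called inactive have numbers as strong as hits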
Target sequence (P9WFX0 whole entry, looked up): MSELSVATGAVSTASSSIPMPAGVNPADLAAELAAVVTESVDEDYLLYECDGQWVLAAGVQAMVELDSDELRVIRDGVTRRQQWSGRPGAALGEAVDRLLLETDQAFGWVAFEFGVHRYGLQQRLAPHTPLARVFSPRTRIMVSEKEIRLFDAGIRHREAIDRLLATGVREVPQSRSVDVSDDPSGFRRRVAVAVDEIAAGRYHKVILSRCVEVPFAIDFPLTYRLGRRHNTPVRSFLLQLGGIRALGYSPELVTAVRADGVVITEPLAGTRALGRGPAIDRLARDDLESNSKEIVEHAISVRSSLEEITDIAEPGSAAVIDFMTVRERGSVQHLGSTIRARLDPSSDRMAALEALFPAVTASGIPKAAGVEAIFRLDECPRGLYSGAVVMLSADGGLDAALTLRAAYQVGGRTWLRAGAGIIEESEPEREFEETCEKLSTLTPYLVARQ
Polio RdRp inh intensity = recorded beside Polio RdRp inh, whose call it bears; % elongation; measured here: total intensity read-out; formula for this scale not given here;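 total fluorescence in place of polarization; lower means less elongation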
Starred values were filed as active, the others as inactive; . = not tested or not shown; & = joins results of further samples; ! = not confirmed by another sample.

no.	canonical_smiles	Polio RdRp inh intensity	Mtb MenB inh	Polio RdRp inh	Mtb MbtI inh
1	OCCCc1nc2ccccc2n1C1CCCCC1	108	.	101	-9
2	C(=C\c1ccccc1)/C=N/n1cnnc1	102	-4	104	40
3	CCCN1C(=O)SC(CC(=O)Nc2ccc(C(=O)OCC)cc2)C1=O (stereo unspecified)	103	-8	102	0
4	O=C(O)c1cn[nH]c1-c1ccc(F)cc1	101	-6	103	1
5	Cc1cc2nc3ccc(=[N+](C)C)cc-3sc2cc1N	-49*	12	2.0*	.
6	Cc1ccc(N=C2N=C(N)c3ccccc32)c(C)c1	93	-58	102	2
7	CN1CCN(NC(=O)CN(C)S(=O)(=O)c2cc(Cl)ccc2Cl)CC1	101	-10	101	-1
8	CCCC(=O)Nc1cc(C(=O)NC2CCCCC2C)ccc1S(=O)(=O)c1ccc(C)cc1 (stereo unspecified)	108	-1	100	53
9	CC(=O)OC1CC2C(CCCC2(C)C)C2C(=O)C(O)C(C(C)C)C(=O)C12 (stereo unspecified)	101	-30	105	.
10	CC(C)NC(=O)c1ccc(S(=O)(=O)N(C)C)cc1	103	0	101	-17
11	Cn1c(-c2ccc(N)cc2)nc2ccccc21	103	.	102	90
12	O=C(CSc1nc2c(c(C(F)(F)F)n1)CCCCC2)NCCC1=CCCCC1	101	-49	103	3
13	CC(=O)NC1C(=O)N(C)N=C1c1ccccc1 (stereo unspecified)	105	-14	104	18
14	Cc1ccc(CC(C#N)Sc2nnc(C(C)N3CCCCC3)n2-c2ccc(F)cc2)cc1 (stereo unspecified)	107	-195	104	2
15	COc1cccc(NC(=O)Nc2ccc3nc4n(c(=O)c3c2)CCC4)c1	100	-6	103	34
16	O=C(NCC(=O)N1CCN(c2ccccc2F)CC1)c1ccco1	102	-52	104	-7
17	CCCNC(=S)N1CCC(C(=O)c2ccc(C)cc2)CC1	113	1	104	-6
18	O=C(c1cccc(S(=O)(=O)N2CCOCC2)c1)N1N=C(c2ccccc2)CC1(O)C(F)(F)F (stereo unspecified)	103	-36	102	11
19	COC(=O)CCC(=O)Oc1ccc2ccccc2c1	101	-13	100	-153
20	CCCN(CCC)C(=O)CC(c1ccccc1)c1cc(Br)ccc1O (stereo unspecified)	105	-52	103	0
21	COC(=O)C1=NN(c2ccccc2)C(=O)/C1=C\N(C)C	105	-9	101	4
22	CCc1oc2ccccc2c1/C=C/C(=O)O	96	3	103	8
23	CC(=O)N1CCOc2cc(S(=O)(=O)N3CCCC3)c(Cl)cc21	102	10	102	-9
24	NC(=O)C1CCN(C(=S)NCCc2ccccc2)CC1	99	-10	100	-11
25	COc1cccc2c1Oc1ncccc1N(c1ccc(C(=O)N3CCCC3)s1)C2	102	0	100	-381
26	CC1CN(C(=N)N)CC(C)O1 (stereo unspecified)	99	9	106	-8
27	CCC1CSC(Nc2ccccc2)=N1 (stereo unspecified)	105	.	103	-3
28	O=C(Cc1ccc(Cl)cc1)NCCCn1ccnc1	108	-8	107	.
29	COCCNC(=O)Cn1nc(C)c(NC(=O)c2cc(-c3ccc(F)cc3)no2)c1C	102	-1	106	-12
30	O=C(CSc1ncccc1C(=O)O)NC1CCCCC1	98	-16	100	-8
31	CNCc1ccccc1F	102	-16	101	-3
32	Cc1nc(Nc2ccc(S(N)(=O)=O)cc2)oc1C	102	19	101	-11
33	N#Cc1cn(-c2ccccc2)nc1-c1cccnc1	103	-6	105	2
34	Clc1ccc(-c2nc(NCc3ccco3)c3ccccc3n2)c(Cl)c1	105	0	105	13
35	O=C(Nc1ccccc1)N1CCn2cccc2C1Cc1ccccc1 (stereo unspecified)	103	3	99	27
36	Cc1ccc2c(c1)-c1onc(C(=O)NCCN3CCc4ccccc4C3)c1CO2	98	11	104	2
37	O=C(Nc1ccccc1)OCC(CN1CCCCC1)OC(=O)Nc1ccccc1 (stereo unspecified)	99	-4	100	-8
38	CN1CCN(C(CNC(=O)c2cccc(F)c2)c2ccc(F)cc2)CC1 (stereo unspecified)	109	-22	106	-9
39	CC1COC(c2cccn2Cc2ccc(Cl)cc2)=N1 (stereo unspecified)	96	-9	98	-4
40	CCOC(=O)C1=C(O)/C(=C/c2ccc(N3CCOCC3)o2)SC1=Nc1ccc(OCC)cc1	195	7	73	49

Taken from the entries so far (6 entries):
no.	canonical_smiles	Polio RdRp inh intensity	Mtb MenB inh	Polio RdRp inh	Mtb MbtI inh
35	O=C(Nc1ccccc1)N1CCn2cccc2C1Cc1ccccc1 (stereo unspecified)	103	3	99	27
36	Cc1ccc2c(c1)-c1onc(C(=O)NCCN3CCc4ccccc4C3)c1CO2	98	11	104	2
37	O=C(Nc1ccccc1)OCC(CN1CCCCC1)OC(=O)Nc1ccccc1 (stereo unspecified)	99	-4	100	-8
38	CN1CCN(C(CNC(=O)c2cccc(F)c2)c2ccc(F)cc2)CC1 (stereo unspecified)	109	-22	106	-9
39	CC1COC(c2cccn2Cc2ccc(Cl)cc2)=N1 (stereo unspecified)	96	-9	98	-4
40	CCOC(=O)C1=C(O)/C(=C/c2ccc(N3CCOCC3)o2)SC1=Nc1ccc(OCC)cc1	195	7	73	49

Other results
no.	canonical_smiles	Polio RdRp inh intensity	Mtb MenB inh	Polio RdRp inh	Mtb MbtI inh
41	Cc1noc(/C=C/N(C)C)c1S(=O)(=O)Nc1cccc(Cl)c1	100	-19	102	-8
42	C=CCNc1c(Cl)cc(Cl)cc1C(=O)O	99	.	103	-2
43	O=C(CC(NC1CCCC1)C(=O)O)Nc1ccc(Oc2ccccc2)cc1 (stereo unspecified)	100	-39	105	-10
44	Cc1ccc(Cn2cccc(C(=O)Nc3ccon3)c2=O)cc1	105	-1	102	-31
45	CCc1ccc(C(=O)C(C)Sc2nnc(-c3ccccc3)o2)cc1 (stereo unspecified)	105	-6	102	0
46	COc1ccccc1N1CCN(/N=C/c2sccc2C)CC1	107	-5	101	.
47	CCOc1ccc(NC(=O)CNS(=O)(=O)c2ccc3c(c2)C(C)(C)C(=O)N3C)cc1	101	-40	104	-4
48	Cc1sc(NC(=O)c2ccccc2F)c(C(=O)c2ccc(Cl)cc2)c1C	91	-20	99	.
49	CCn1c(Cn2nnc(-c3ccccc3)n2)nc2cc(S(=O)(=O)N(C)C)ccc21	105	3	105	3
50	O=C1Nc2ccccc2/C1=N\N1C(=O)/C(=C/c2ccccc2)N=C1c1ccccc1	98*	-57	88*	.
51	OC(COCc1ccccc1)C[N+]1(Cc2ccccc2)CCOCC1 (stereo unspecified)	104	.	103	-14
52	O=S(=O)(/N=C(/Nc1cc(N2CCOCC2)ncn1)c1ccc(F)cc1)c1ccccc1	101	-19	100	54
53	CCOc1ccc(-c2ccc(NS(=O)(=O)c3ccccc3)cc2)nn1	.	-10	.	-19
54	CC(CNC(=O)Cn1ncc2ccccc21)c1ccccc1 (stereo unspecified)	97	4	101	7
55	C=CCN1C(=O)c2ccccc2N2C(=O)CCC12C(=O)NCc1ccccc1 (stereo unspecified)	102	-11	104	-7
56	O=C(c1ccc(Cl)cc1)c1ccc(S(=O)(=O)c2ccc(Cl)cc2)cc1	99	-36	102	3
57	CCOC(=O)C1C(=S)NC(N)=C(C#N)C12CCCCC2 (stereo unspecified)	112	-43	105	.
58	Cc1ccc(CCNC(=O)c2cccn3c(=O)c4c5c(sc4nc23)CCCC5)cc1	100	4	101	-24
59	O=C(OCc1ccc2nonc2c1)c1cc(-c2ccccc2)nc2ccccc12	102	-16	101	-5
60	COc1ccccc1CNC(=O)CNC1CCCCC1	.	-25	.	-9

The closing three records of the part above are carried over, then new ones follow:
no.	canonical_smiles	Polio RdRp inh intensity	Mtb MenB inh	Polio RdRp inh	Mtb MbtI inh
58	Cc1ccc(CCNC(=O)c2cccn3c(=O)c4c5c(sc4nc23)CCCC5)cc1	100	4	101	-24
59	O=C(OCc1ccc2nonc2c1)c1cc(-c2ccccc2)nc2ccccc12	102	-16	101	-5
60	COc1ccccc1CNC(=O)CNC1CCCCC1	.	-25	.	-9
61	O=S(=O)(NC1CCCC1)c1ccc(Br)cc1	102	27	100	-10
62	CC(=O)Nc1ccc(S(=O)(=O)NC2=NCN(C3CCN(Cc4ccccc4)CC3)CN2)cc1	102	-58	102	-3
63	CN(C)S(=O)(=O)c1ccc(-c2n[nH]c(=S)n2-c2ccc(Cl)cc2)cc1	103	-79	104	6
64	CC(C(=O)NCCCN1CCN(C2CCCCC2)CC1)n1ncn2cccc2c1=O (stereo unspecified)	103	6	101	-24
65	Nc1nc(-c2ccccc2)c(N=Nc2ccc3c(c2)OCO3)s1	88	-14	100	51
66	O=C(NCCCN1CCCC1)C1CCN(c2nc3ccccc3n3cccc23)CC1	101	-27	105	-7
67	NS(=O)(=O)c1ccc(Cl)cc1F	104	8	101	-5
68	Cc1ccc(NC(=S)N2CCCN(c3ncc(C(F)(F)F)cc3Cl)CC2)c(C)c1	112	-48	107	-6
69	CN1C(=O)C2N=NN(c3ccccc3)C2C1=O (stereo unspecified)	100	-63	102	-16
70	COc1ccccc1Nc1ncccc1C(=O)Nc1ccnn1C(C)C	98	-20	103	-8
71	O=C(COC(=O)/C=C/c1ccc(F)cc1)Nc1ncc(C(F)(F)F)cc1Cl	102	.	102	-8
72	O=C(CSc1nc2sc3c(c2c(=O)[nH]1)CCCC3)N1CCOCC1	102	4	108	4
73	Cc1ccccc1NC(=O)COC(=O)c1cccc(S(=O)(=O)N2CCCC2)c1	100	-18	104	3
74	O=c1o[nH]c(-c2ccccc2F)c1C=Nc1ccc(Cl)cn1	99	-10	101	.
75	Cc1csc2sc(C(=O)c3ccc(Cl)cc3)c(C)c12	109	-15	102	0
76	O=C(NCCc1ccccc1F)C1CC(=O)N(c2ccccc2)C1 (stereo unspecified)	99	-11	101	-20
77	O=c1[nH]c2ccc(Oc3ccc4[nH]c(=O)c(=O)[nH]c4c3)cc2[nH]c1=O	129&110	2&-14	102&98	13
78	COC(=O)c1ccccc1NC(=O)Cn1cc(S(=O)(=O)N2CCC(C)CC2)c2ccccc2c1=O	103	-35	100	9
79	CCCn1c2ccc(Cl)cc2c2nc3ccccc3nc21	102	-16	102	4
80	Cc1ccc(-n2cnc3ccccc3c2=O)cc1Cl	103	-22	105	-19
81	CCCOC(=O)c1ccc(Nc2nc3ccccc3n3c(C)nnc23)cc1	100	-7	100	2
82	OCC1OC(n2cnc3cncnc32)C(O)C1O (stereo unspecified)	104	-4	104	.
83	O=c1[nH]c2ccc(S(=O)(=O)NCc3ccco3)cc2[nH]1	104	-3	104	-1
84	O=C(Cn1ncc2ccc(Cl)cc21)N1CCc2ccccc2C1	101	-13	100	12
85	Cc1noc(C)c1COC(=O)CCc1nc2ccccc2s1	107	-4	104	-13
86	CSc1ccc(-c2nc(N)sc2-c2ccccc2)cc1	104	-2	100	.
87	COC(=O)[n+]1ccc(N2CCOCC2)cc1	101	-42	99	-56
88	O=C(COc1ccc(Br)cc1)OCc1nnc(-c2ccccc2)o1	106	1	102	1
89	Cc1cccc(N2C(=O)CN(C(C)C)C(=O)C2c2ccc(F)cc2)c1C (stereo unspecified)	101	12	100	-7
90	CN(C)C(=O)C(OC(=O)c1ccc2ccccc2n1)c1ccccc1 (stereo unspecified)	100	-7	98	36
91	Cc1ccc(-c2nnc(SC(C)C(=O)c3ccccc3)o2)cc1 (stereo unspecified)	128	4	108	-1
92	Cc1nc2nc3ccccc3nc2n1-c1ccc(F)cc1	106	.	103	-1
93	CCOC(=O)c1nc[nH]c1C(=O)OC	102	6	100	14
94	COC1=C(N2CCOCC2)C(=O)c2ccccc2C1=O	93	-5	94	13
95	O=C(N1CCCCC1)N1CCN(C(=O)N(c2ccccc2)c2ccccc2)CC1	108	-1	101	0
96	CCOC(=O)c1ccc(Cn2nnc3ccccc3c2=O)cc1	100	-64	105	-5
97	O=c1nc2n3ccsc3ncc-2s1	123	-3	102	47
98	CCCCC1C(=O)N(c2ccccc2)N(c2ccc(O)cc2)C1=O (stereo unspecified)	98&101	-10&4	101&99	84*!
99	CC1CCN(C(=O)C(Cc2ccccc2)NS(=O)(=O)c2ccc3c(c2)c(=O)n(C)c(=O)n3C)CC1 (stereo unspecified)	104	-4	102	10

Reprinted at random: four entries already listed.
no.	canonical_smiles	Polio RdRp inh intensity	Mtb MenB inh	Polio RdRp inh	Mtb MbtI inh
68	Cc1ccc(NC(=S)N2CCCN(c3ncc(C(F)(F)F)cc3Cl)CC2)c(C)c1	112	-48	107	-6
16	O=C(NCC(=O)N1CCN(c2ccccc2F)CC1)c1ccco1	102	-52	104	-7
17	CCCNC(=S)N1CCC(C(=O)c2ccc(C)cc2)CC1	113	1	104	-6
27	CCC1CSC(Nc2ccccc2)=N1 (stereo unspecified)	105	.	103	-3

Complete entries, quoted from the list. Order of screens: Polio RdRp inh intensity | Mtb MenB inh | Polio RdRp inh | Mtb MbtI inh
Listed for `COC1=C(N2CCOCC2)C(=O)c2ccccc2C1=O` = 93 | -5 | 94 | 13
Listed for `O=c1nc2n3ccsc3ncc-2s1` = 123 | -3 | 102 | 47
Listed for `Cc1noc(C)c1COC(=O)CCc1nc2ccccc2s1` = 107 | -4 | 104 | -13

Screening data: PubChem BioAssay, ICCB-Longwood Screening Facility, Harvard Medical School
